# NS1 inh = qHTS Assay for Inhibitors of Influenza NS1 Protein Function; S. cerevisiae slowed by influenza A NS1, growth recovery by OD600; Potency, µM (titrated, usually from 46.1 µM), for the others: top-dose activity, positive = more growth; 270,000 tested, 0.4% active; also: actives are rising curves; nearly all actives have a fitted effect of over 50% in size
#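 Growth recovery, yeast-based: influenza A NS1 expressed in S. cerevisiae causes slow growth, and suppressors are detected by OD600. The parent strain without NS1 is used as positive control.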
# Lassa entry inh = qHTS for Inhibitors of binding or entry into cells for Lassa Virus. Lassa virus pseudotype entry inhibition, cell reporter; control for the full effect not named in the record. 300,000 tested, 1.2% active. AID 540256, 2011. Potency, µM (doses to about 37.9 µM), for the others: top-dose activity change, negative = inhibition, actives largely listed as inhibitors; active means well fitted inhibition curve with a large enough effect; inconclusive means small, poorly fitted or top-dose-only effect, or effect the other way; inactive means flat fitted curve, though single readings scatter; tested in HEK293 cells; also: % is scaled to controls: 0 for no effect and ±100 for the full control effect; nearly all actives have a fitted effect of over 50% in size; luciferase read-out
# 2A StopGo = High Throughput Screening for Foot and Mouth Disease Virus Antivirals; human cells with a luciferase reporter of 2A StopGo recoding; control for the full effect not named in the record; Potency, µM (doses to about 57.9 µM), for the others: top-dose signal change, negative = less light; 410,000 tested, 1.2% active; AID 1159524, 2015; active = well fitted falling curve with a large enough effect; inconclusive = small, poorly fitted or top-dose-only effect; inactive = no such curve, though single readings can be large or run the other way; tested in HEK293T cells; also: % is scaled to controls: 0 for no effect and ±100 for the full control effect; nearly all actives have a fitted effect of over 45% in size; luciferase light after 4 h
# Marburg entry inh = qHTS for inhibitors of binding or entry into cells for Marburg Virus; 300,000 tested, 1.8% active; Marburg virus pseudotyped entry inhibition, cell reporter; control for the full effect not named in the record; about a third of the inactives were read at about 46 µM; Potency, µM (series often up to 37.8 µM), for the others: at the highest dose activity change, negative = inhibition, most hits filed as inhibitors; active = well fitted inhibition curve with a large enough effect; inconclusive = small, poorly fitted or top-dose-only effect, or effect the other way; inactive = flat fitted curve, though single readings scatter; tested in HEK293 cells; about a fifth of its hits are not listed in these tables; also: % is scaled to controls: 0 for no effect and ±100 for the full control effect; luciferase read-out
# SARS PLpro yeast = qHTS of Yeast-based Assay for SARS-CoV PLP; S. cerevisiae expressing SARS-CoV PLpro, growth rescue; control for the full effect not named in the record; Potency, µM (titrated, usually from 32.9 µM), without a hit: top-dose activity, positive = growth rescue; 330,000 tested, 0.19% active; AID 485353, 2010; also: 0% is about no effect; nearly all actives have a fitted effect of over 55% in size; growth read by luminescence after 48 h
# An asterisk follows results filed as active; ? = inconclusive; . = not tested or not shown; & = joins results of further samples; [ ] = another dose, or the depositor's remark. Unless noted, calls follow the shape of the dose curve; as a rule, active means well fitted rising curve with a large enough effect; inconclusive means small, poorly fitted or top-dose-only effect; inactive means no such curve, though single readings can be large or run the other way. Potency is read from the fitted curve at half-maximal effect. Only part of the results is shown, so the mix of outcomes need not match the whole.
SMILES,NS1 inh,Lassa entry inh,2A StopGo,Marburg entry inh,SARS PLpro yeast
C#CCOCCOCCOCCNc1nc(N2CCN(C(=O)[C@H](CCC(=O)O)n3cc(C(N)CO)nn3)CC2)nc(N2CCN(C(=O)[C@H](CCCCN)n3cc(C(N)[C@H](C)CC)nn3)CC2)n1 (stereo partly drawn),-3%,.,.,1%,0%
CCCCn1c(C)cc2c(c1=O)[C@H]1O[C@](CCCCN3C(=O)c4ccccc4C3=O)(Cc3ccccc31)O2,8%,.,.,5%[14.2 µM],-2%[6.58 µM]
COc1ccc([C@]23Cc4cc(OC)c(OC)cc4C(O2)c2c(cc(C)n(Cc4ccccc4)c2=O)O3)cc1,2%,.,.,?,-4%[6.58 µM]
COc1cccc([C@H]2Oc3ccc(OC)cc3C(=NOCC[C@@H]3C=C[C@H](OC(C)=O)[C@@H](COC(C)=O)O3)[C@H]2O)c1,.,?,.,-24%[14.2 µM],.
FC(F)(F)c1ccc(-c2nc(-c3ccccc3)oc2NCc2ccccc2)cc1,.,-11%[14.3 µM],.,-7%[14.2 µM],.
COC(=O)CC=C[C@@H](C)[C@@H](Cc1ccccc1Br)OC,.,0%[14.3 µM],.,-4%[14.2 µM],.
COc1cccc([C@@H]2Oc3ccc(Br)cc3C(=O)[C@@H]2OC(=O)Nc2ccc(OC(F)F)cc2)c1,.,?,.,?,.
CC(=O)[C@]12C[C@]3(C)CCCN(C(=O)N[C@@H]1c1ccccc1)C32 (stereo partly drawn),.,?,.,10%[14.2 µM],.
Cc1cc(O)cc(O)c1C(=O)OC1(C)C(=O)C=C2C=C(C=CC(=O)O)OC=C2C1=O (stereo not drawn),.,?,.,-31%[14.2 µM],.
Brc1c(Br)c(Br)c2[nH]cnc2c1Br,.,?,.,-9%&-9%,.
COC(=O)C1=C(C(=O)OC)[C@@H]2N(C)c3ccccc3[C@@]23C[C@@H](C(=O)OC)N(C(=O)NC(C)(C)C)C3=N1,.,?,.,14%[14.2 µM],.
COC(=O)C1=C(C)N(CC2CC2)C(=NCCc2cccnc2)NC1c1ccccc1 (stereo not drawn),.,0%[14.3 µM],.,4%[14.2 µM],.
COc1ccc(-c2nc3c(c4c2C[C@H](c2ccccc2)OC4)CN(C(=O)Nc2cccc(C#N)c2)CC3)c(C)c1,.,?,.,?,.
COC(=O)[C@@H]1CC[C@H](C)[C@@H](c2ccc(C)cc2)N1C(=O)c1ccc(C=NO[C@@H](C)c2cn([C@H](CO)Cc3ccccc3)nn2)cc1,.,-7%[14.3 µM],.,5%[14.2 µM],.
CC(=O)OC[C@H]1O[C@H](CC=NO[C@@H](C)c2cn([C@H](CO)Cc3ccccc3)nn2)C=C[C@@H]1OC(C)=O,.,?,.,?,.
CCN1C(=S)NC(c2cccs2)C(C(=O)OC)=C1C (stereo not drawn),.,.,.,38%[14.2 µM],.
CC(O)C(O)[C@H]1CNc2nc(N)[nH]c(=O)c2N1 (stereo partly drawn),.,0%,.,16%&16%,.
COc1cc([C@@H](NC(=O)C(F)(F)F)C2CCCCC=C2c2ccccc2)cc(OC)c1OC (stereo partly drawn),.,-12%[14.3 µM],.,10%[14.2 µM],.
NC(=O)c1ccc2[nH]ccc2c1,.,?,.,14%&14%,.
Oc1ccc2ccccc2c1SSc1c(O)ccc2ccccc12,.,?,.,?,.
C=CCOC(=O)N[C@H](C(C(=O)OC)=C(C)NCc1ccccc1)c1cccc(C(F)(F)F)c1,.,?,.,3%&6%[14.2 µM],.
COC(=O)C1=C(C)N(Cc2ccco2)C(=O)NC1c1ccc(Br)cc1 (stereo not drawn),.,3%[14.3 µM],.,?,.
C[C@@H]1CC[C@H]2C(=O)O[C@@H](COc3ccc(C(C)(C)C)cc3)CN2[C@@H]1c1ccc(Br)cc1,.,-5%[14.3 µM],.,?,.
COc1ccc2c(c1)CCC1C2CC[C@@]2(C)C1CC[C@@H]2NCCCCCCN1C(=O)CCC1=O (stereo partly drawn),.,13µM*,.,?,.
COc1ccc(COC(=O)NN=C2C[C@@H](O)[C@@H](O)[C@@H]3[C@H]4C(=O)N(C5CCCCC5)C(=O)[C@@H]4CC[C@@H]23)cc1,.,?,.,?,.

# Pulled by compound from the list above (3):
SMILES,NS1 inh,Lassa entry inh,2A StopGo,Marburg entry inh,SARS PLpro yeast
Oc1ccc2ccccc2c1SSc1c(O)ccc2ccccc12,.,?,.,?,.
CC(O)C(O)[C@H]1CNc2nc(N)[nH]c(=O)c2N1 (stereo partly drawn),.,0%,.,16%&16%,.
CC(=O)OC[C@H]1O[C@H](CC=NO[C@@H](C)c2cn([C@H](CO)Cc3ccccc3)nn2)C=C[C@@H]1OC(C)=O,.,?,.,?,.

# (next part)
SMILES,NS1 inh,Lassa entry inh,2A StopGo,Marburg entry inh,SARS PLpro yeast
COC(=O)N[C@H](C(C(=O)OC)=C(C)NCc1ccccc1)c1cccc(C)c1,.,?,.,?,.
COc1cc2c(cc1OC)[C@@H]1O[C@](CCCCN3C(=O)c4ccccc4C3=O)(C2)Oc2c1c(=O)oc1ccc(F)cc21,.,?,.,2%[14.2 µM],.
CC(C)(C)c1nc(-c2ccccc2)oc1Nc1ccc2ccccc2c1,.,?,.,?,.
CC(=O)C1=C(C)N(Cc2ccccc2)C(=O)NC1c1ccc(Br)cc1 (stereo not drawn),.,16%[14.3 µM],.,-4%&0%[14.2 µM],.
CC1=C[C@]2(O[C@H](COc3ccccc3)C1)C(=O)N(C)c1ccccc12,.,?,.,?,.
COC(=O)C1=C[C@H]([C@@H](C)[C@H](OC)c2ccccc2Br)[C@H]2[C@H]1c1ccccc1N2C,.,?,.,-16%&-8%[14.2 µM],.
CCCCc1nc2c(c3c1C[C@H](C)OC3)CN(S(=O)(=O)c1ccc(C)cc1)CC2,.,?,.,5%&5%&5%[14.2 µM],.
CC(=O)OC[C@H]1O[C@H](CC=NO[C@H](C)c2cn([C@H](CO)Cc3ccccc3)nn2)C=C[C@@H]1OC(C)=O,.,-21%[14.3 µM],.,13%[14.2 µM],.
COC1=C[C@H](C(=O)NCCNC(C)=O)[C@@]2(C)Cc3ccccc3[C@@H]2CC1=O,.,?,.,-20%[14.2 µM],.
C[C@H]1C=CCC(=O)N[C@@H](c2ccccc2)[C@@H](C)C=CCC(=O)N[C@@H]1c1ccccc1,.,-13%[14.3 µM],.,?,.
O=C1NC(=O)/C(=C/c2ccc3nccnc3c2)S1,.,?,.,21%,.
COC(=O)C1=C(C)N(Cc2ccccc2)C(=NCCCCO)NC1c1cccc(F)c1 (stereo not drawn),.,?,.,?,.
Cc1cccc(-c2[nH]c(C(C)(C)C)nc2-c2ccc3nccnc3c2)n1,.,?,.,?,.
Nc1ccccc1C(=O)C=Cc1ccc2c(c1)OCO2,.,?,.,?,.
CC1=CC[C@@H](COc2ccccc2)O[C@@]2(C1)C(=O)Nc1cccc(Br)c12,.,?,.,4%&4%[14.2 µM],.
C=C(C[C@]1(C(=O)OC)C[C@]2(CC=C(C)C)C(=O)C(C(=O)CC(C)C)=C(O)[C@@](CC=C(C)C)(C1)C2=O)C(=O)OC,.,?,.,?,.
CC(C)=CCCC(C)=CCON=C1C[C@@H](O)[C@@H](O)[C@@H]2[C@H]3C(=O)N(Cc4ccc5c(c4)OCO5)C(=O)[C@@H]3CC[C@@H]12,.,-1%[14.3 µM],.,-44%[14.2 µM],.
COc1cccc(C(CC2=CCCCC2)NC(=O)C(F)(F)F)c1 (stereo not drawn),.,?,.,?,.
COc1cc2c(cc1OC)[C@@H]1O[C@](c3ccsc3)(C2)OC2=C1C(=O)OC1(CCCCC1)C2,.,?,.,?,.
C=CC[C@H]1C(=O)N2[C@@H](C[C@@H](C)[C@@H]2c2ccccc2)[C@@H](CC=C)C(=O)N2[C@H]1C[C@@H](C)[C@@H]2c1ccccc1,.,?,.,?,.
COC(=O)CC1c2ccccc2C=C(C=Cc2ccc3c(c2)OCO3)N1C(=O)OC (stereo not drawn),.,?,.,-18%[14.2 µM],.
CCN1C(=NCc2cccc(Cl)c2)NC(c2cccc(C(F)(F)F)c2)C(C(=O)OC)=C1C (stereo not drawn),.,-42%[14.3 µM],.,-25%[14.2 µM],.
O=C1[C@H]2[C@@H]3[C@@H](O)[C@H](O)CC(=NOCc4ccccc4)[C@H]3CC[C@H]2C(=O)N1Cc1ccc2c(c1)OCO2,.,-19%[14.3 µM],.,-38%[14.2 µM],.
C=C1C[C@@]23CC[C@H]4[C@@](C)(CCC[C@@]4(C)C(=O)OC4OC(CO)C(O)C(O)C4O)[C@@H]2CC[C@]1(OC1OC(CO)C(O)C(O)C1OC1OC(CO)C(O)C(O)C1O)C3 (stereo partly drawn),.,25%,.,1%,.
C=CC1(O)C(OC)=CC2C(=O)C1C(c1ccccc1)C2C (stereo not drawn),.,?,.,14%[14.2 µM],.

# Results in 2A StopGo, Marburg entry inh and SARS PLpro yeast, for 3 of the compounds above:
smiles	2A StopGo	Marburg entry inh	SARS PLpro yeast
CC1=CC[C@@H](COc2ccccc2)O[C@@]2(C1)C(=O)Nc1cccc(Br)c12	.	4%&4%[14.2 µM]	.
C=C(C[C@]1(C(=O)OC)C[C@]2(CC=C(C)C)C(=O)C(C(=O)CC(C)C)=C(O)[C@@](CC=C(C)C)(C1)C2=O)C(=O)OC	.	?	.
CC(C)=CCCC(C)=CCON=C1C[C@@H](O)[C@@H](O)[C@@H]2[C@H]3C(=O)N(Cc4ccc5c(c4)OCO5)C(=O)[C@@H]3CC[C@@H]12	.	-44%[14.2 µM]	.

# (continued)
SMILES,NS1 inh,Lassa entry inh,2A StopGo,Marburg entry inh,SARS PLpro yeast
C[C@@H]1[C@@H](c2ccccc2)c2cc3ccccc3nc2-c2nc3ccccc3cc2[C@H]1C(=O)N1CCCC1,.,?,.,25%[14.2 µM],.
C[C@H]1CC[C@H]2C(=O)O[C@H](CO)CN2[C@H]1c1ccc(Br)cc1,.,?,.,-20%[14.2 µM],.
CCCCC#Cc1nc(NC)c2ncn([C@@H]3O[C@H](CO)[C@@H](O)[C@H]3O)c2n1,.,?,.,9%,.
COC(=O)[C@@H]1CC[C@H](C)[C@@H](c2ccc(C)cc2)N1C(=O)c1ccc(C=NOC[C@@H](O)[C@H]2O[C@@H]3OC(C)(C)O[C@H]3[C@@H]2O)cc1,.,10%[14.3 µM],.,28%[14.2 µM],.
OC[C@H]1O[C@H](C#Cc2ccccc2)C=C[C@H]1O,.,?,.,2%&2%&20%[14.2 µM],.
COC(=O)c1c(C(=O)OC)c2c3cc(OC)c(OC)cc3ccn2c1C(=O)OC,.,?,.,23%[14.2 µM],.
CC(O)(COc1ccccc1)c1ccc2c(c1)CN(Cc1ccc3nsnc3c1)CCO2 (stereo not drawn),.,.,-16%,.,.
O=C(c1noc2c1CCCC2)N1CCOc2ccc(CN3CCN(c4ccccn4)CC3)cc2C1,.,.,-4%,.,.
CC(C)Oc1ccc(C(=O)NCC2Cc3cc(F)cc(-c4cnccn4)c3O2)cc1 (stereo not drawn),.,.,0%,.,.
O=C(C(=O)N1CCOc2ccc(CN3CCN(Cc4ccccn4)CC3)cc2C1)c1ccccc1,.,.,7%,.,.
CN(CCO)C(=O)c1cn(C2CCCN(Cc3cc4ccccc4s3)C2)nn1 (stereo not drawn),.,.,-23%,.,.
CCS(=O)(=O)NCc1c(C)ncc2c1CCN(C(=O)c1ccc(F)cc1)C2,.,.,-15%,.,.
COCc1c(C(=O)NC2CCCCC2)cnn1-c1nccc(-c2ccccc2OC)n1,.,.,-2%,.,.
COc1ccc(CN2CCCC(n3cc(C(=O)NC4CCCC4)nn3)C2)c(O)c1 (stereo not drawn),.,.,-20%,.,.

# Bioassay records as filed in PubChem.
